Screening data from PubChem.
hNpr1 antagonist = blocks ANP-stimulated signaling of human Npr1 receptor. P16066. HEK293 hNpr1 GloSensor cGMP, ANP-stimulated luminescence. Potency, µM (series often up to 46.3 µM), inactives show at the top dose activity change, negative = inhibition, usual class: inhibitors. actives 1.6% (n = 76,000). AID 1347048; active = well fitted inhibition curve with a large enough effect; inconclusive = small, poorly fitted or top-dose-only effect; inactive = no such curve, though single readings can be large or run the other way;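 further: nearly all actives have a fitted effect of over 60% in size; nearly all hits also lower the signal before the agonist is added; a reference antagonist and vehicle were the controls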
Target sequence (P16066 whole entry, looked up): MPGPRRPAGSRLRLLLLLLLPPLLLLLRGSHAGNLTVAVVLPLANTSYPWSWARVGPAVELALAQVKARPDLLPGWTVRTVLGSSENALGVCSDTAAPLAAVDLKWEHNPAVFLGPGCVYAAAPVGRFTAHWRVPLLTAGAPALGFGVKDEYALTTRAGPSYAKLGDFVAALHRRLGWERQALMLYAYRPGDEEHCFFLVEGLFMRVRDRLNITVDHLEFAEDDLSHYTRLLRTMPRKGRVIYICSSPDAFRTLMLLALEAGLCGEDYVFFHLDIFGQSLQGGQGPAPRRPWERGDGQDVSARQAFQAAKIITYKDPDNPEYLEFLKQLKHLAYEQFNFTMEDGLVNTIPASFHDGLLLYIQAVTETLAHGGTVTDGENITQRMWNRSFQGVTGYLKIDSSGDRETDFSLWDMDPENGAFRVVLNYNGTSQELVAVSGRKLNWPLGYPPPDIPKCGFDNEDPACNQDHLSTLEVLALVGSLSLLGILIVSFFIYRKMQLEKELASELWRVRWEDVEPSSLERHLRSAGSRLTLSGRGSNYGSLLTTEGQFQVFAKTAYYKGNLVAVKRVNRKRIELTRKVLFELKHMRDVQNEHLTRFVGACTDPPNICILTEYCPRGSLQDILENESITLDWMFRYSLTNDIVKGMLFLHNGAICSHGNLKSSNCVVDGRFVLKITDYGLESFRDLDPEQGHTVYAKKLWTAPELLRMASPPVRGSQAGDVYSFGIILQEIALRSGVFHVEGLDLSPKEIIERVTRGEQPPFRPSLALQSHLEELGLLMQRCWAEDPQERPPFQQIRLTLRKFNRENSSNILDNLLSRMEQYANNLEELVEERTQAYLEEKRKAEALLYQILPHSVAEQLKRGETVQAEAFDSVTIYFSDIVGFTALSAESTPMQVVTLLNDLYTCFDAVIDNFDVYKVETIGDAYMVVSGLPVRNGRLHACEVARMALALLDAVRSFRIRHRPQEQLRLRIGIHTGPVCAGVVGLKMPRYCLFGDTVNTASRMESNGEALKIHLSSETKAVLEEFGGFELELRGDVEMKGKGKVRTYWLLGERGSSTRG
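Compound pre-incubated 30 min at room temperature on GloSensor-loaded HEK293 cells stably carrying hNpr1 and the pGS-40F cGMP biosensor. Stimulation uses hNppA at 0.1 nM final; luminescence is taken at baseline and 20 min post-agonist.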
* = called active by the depositor; ? = inconclusive; [ ] = dose if it differs, or a comment. On the % scale 0 is the no-effect control and ±100 the full control effect; potency means the concentration at half of the fitted maximal effect. A portion of the library; count on the stated rates, not on these rows.

SMILES | hNpr1 antagonist
O=C(CC1CCN(C(=O)c2ccc(F)cc2)C1)NC1CC1 (centres undefined) | 0%
COc1ccc(C(=O)NCC2(COc3ccc(C(F)(F)F)cn3)C[C@@H](O)[C@@H](O)C2)cc1 (some centres undefined) | 2%
O=C(O)c1ccc(CC2CCN(Cc3cnc(-c4ccco4)nc3)C2)cc1 (centres undefined) | 5%
CC(=O)Nc1cccc(C(=O)NCc2nnc3ccc(-c4ccc(C)cc4)nn23)c1 | -2%
COc1ccc2[nH]c(=O)c(CN(Cc3cnn(C)c3)C3CC3)cc2c1 | -2%
Nc1ncccc1CN1CC[C@@H]2OCC(=O)N(Cc3ccc(O)cc3)[C@H]2CC1 | 4%[70.6 µM]
CN1C(=O)CS(=O)(=O)C12CCNCC2 | 4%
Cn1cnc(C(=O)N2C[C@@H](COc3ccccc3)[C@H](C(N)=O)C2)c1 | 2%
O=C(NCC1CC1)c1cn(C2CN(C(=O)NC3CCCCC3)C2)nn1 | -7%
CC1=C(C(=O)Nc2ccccc2)C(c2cccc(C)c2)N2C(CC(=O)NCC(C)C)=CSC2=N1 (centres undefined) | -23%
c1cnn(-c2ccc(-c3nc(C4CCOC4)no3)cc2)c1 (centres undefined) | ?
COCC1CN(C2CCC2)CC12CCN(C(=O)C1CCN(C(C)=O)CC1)CC2 (centres undefined) | 0%
COc1ccc(C2Cn3nnc(C(=O)N4CCC(C(=O)NCCC5=CCCCC5)CC4)c3CO2)cc1 (centres undefined) | 3%
O=C1CC(C(=O)Nc2cccc(Cl)c2)n2ncnc2N1 (centres undefined) | 6%
O=c1n(-c2ccc(F)cc2F)nc2n1CCN(CC1CCCCC1)C2 | -2%

The last two records of the part above are carried over, then new ones follow.
SMILES | hNpr1 antagonist
O=C1CC(C(=O)Nc2cccc(Cl)c2)n2ncnc2N1 (centres undefined) | 6%
O=c1n(-c2ccc(F)cc2F)nc2n1CCN(CC1CCCCC1)C2 | -2%
C#CCN(C)Cc1nc(C2(O)CCN(CC3CC3)CC2)cs1 | -1%[70.6 µM]
COCCN1Cc2[nH]nc(-c3cccc(OC)c3)c2CC1=O | -4%[70.6 µM]
COC[C@H]1NC(=O)CC[C@H]1C(=O)Nc1cccc(OC(F)(F)F)c1 | 7%
Cc1cccc(C(=O)NCC2CCCCC(=O)N2)c1 (centres undefined) | 4%
O=C(CC1CCN(C(=O)C2CCCC2)C1)N1CCOCC1 (centres undefined) | 1%
O=C(CO)NC1CC(=O)N(Cc2ccccc2C(F)(F)F)C1 (centres undefined) | -1%
CCc1cccc(NC(=O)Cn2c(-c3ccc(F)cc3)nc(C)c(CCO)c2=O)c1 | -11%
CCNC(=O)c1cccc2c1CCN2S(=O)(=O)c1ccccc1F | 1%
COc1ccc(CCC(=O)N2CCC3(CC2)CCC(O)(CN(C)C)CC3)cc1 | 3%
C=CCNc1ccccc1C(=O)NC(C(=O)O)c1c(C)n[nH]c1C (centres undefined) | 6%
COC1C(=O)N(C2CCN(Cc3ccc(F)cc3F)CC2)C12CCOCC2 (centres undefined) | -6%
Cc1cc(C[C@@H]2COC[C@@H]2NC(=O)c2cnn3ccccc23)on1 | 1%
Cc1ccc(C(=O)N2CCC(n3cc(-c4nc(C(C)C)no4)nn3)CC2)cc1F | -18%
CCCN(CC1CCOC1)S(=O)(=O)c1ccc(F)c(F)c1 (centres undefined) | 4%
COCCOCc1nc(C2CCN(C(=O)NCCc3ccccc3)CC2)no1 | 5%
O=C(NC1CCCC1)c1ccc2c(c1)n(Cc1ccccc1)c(=O)c1ccnn12 | -11%
Cc1ccc(CN2C[C@@H](CO)[C@H](c3nc(C)no3)C2)nc1 | 2%
CCN1CCC(N2CCOC3(COCCN(C(=O)c4ccccc4C)C3)C2)CC1 (centres undefined) | -1%
COc1ccc(-c2noc(-c3nc(Cc4ccccc4)no3)n2)cc1OC | -9%
CCCOC1CCCN(Cc2c(C(=O)N(C)CCc3ccccc3)nc3sccn23)C1 (centres undefined) | -4%
O=C(Nc1nn(Cc2ccccc2)c2cccc(N3CCOCC3)c12)c1ccncc1 | 1%
Cc1cccc(C(=O)N2CCCCCNC(=O)CC2c2ccccc2)c1 (centres undefined) | 19%
O=C(NC1CCOCC1)c1cccc(S(=O)(=O)N2CCC[C@H]2CO)c1 | 3%
C1=C(c2cc(-c3ccncc3)cn3cncc23)CCOC1 | 4%[70.6 µM]
CC(C)c1nc2c(NC(=O)Nc3cccc(Cl)c3)cccn2n1 | ?
COc1ccc(N2CCOC3CCN(Cc4ccccn4)CC3C2=O)cc1 (centres undefined) | -4%[70.6 µM]
CCCCNC(=O)CC(c1cccc(OC)c1OC)c1c[nH]c2ccccc12 (centres undefined) | -19%
O=C(O)[C@@H]1CN(C(=O)NC2CCCC2)C[C@H]1c1ccccn1 | -8%
C[C@H]1[C@@H]2[C@@H](O)C([C@H](C)C(=O)NC3CC3)CC[C@@]2(C)CC[C@@H]1NC(=O)C1CCCCC1 (some centres undefined) | 6%[70.6 µM]
CC1Oc2ccc(NC(=O)Cc3ccc(F)cc3)cc2CN(Cc2ccccc2F)C1=O (centres undefined) | -19%

Individual results from above.
In hNpr1 antagonist, O=C(NC1CCCC1)c1ccc2c(c1)n(Cc1ccccc1)c(=O)c1ccnn12 shows -11%
In hNpr1 antagonist, C[C@H]1[C@@H]2[C@@H](O)C([C@H](C)C(=O)NC3CC3)CC[C@@]2(C)CC[C@@H]1NC(=O)C1CCCCC1 (some centres undefined) shows 6%[70.6 µM]
In hNpr1 antagonist, COc1ccc(-c2noc(-c3nc(Cc4ccccc4)no3)n2)cc1OC shows -9%
In hNpr1 antagonist, C1=C(c2cc(-c3ccncc3)cn3cncc23)CCOC1 shows 4%[70.6 µM]

More compounds.
SMILES | hNpr1 antagonist
CC1=C[C@@H](CN2CCN(c3ccccn3)CC2)[C@H](C(C)C)C[C@H]1Cc1nnc(-c2ccccc2)o1 | -28%
O=C1Nc2ccc(-c3ccc4c(c3)OCO4)cc2C(=O)N2CCN(C(=O)c3cccs3)C[C@H]12 | -5%
Cc1ccc(CN2CC[C@H](CO)[C@H](NC(=O)c3cccnc3)C2)s1 | 10%
O=C(c1cccnc1)N1CCC2(C1)C(=NC1CCCC1)NC(=O)N2c1cccnc1 (centres undefined) | 12%
O=C(CCc1ccnc(N2CCCC2)c1)NCc1ccc(F)c(Cl)c1 | 0%
CN(C)c1cc(N2CCCC(NC(=O)c3ccccn3)C2)ncn1 (centres undefined) | -10%
O=[N+]([O-])c1ccccc1CN1C[C@H](O)C[C@H]1c1nc(-c2ccncc2)no1 | -4%[70.6 µM]
Cc1ccc(-n2nc(-c3c(C)nc4scc(CC(=O)NCc5ccco5)n4c3=O)cc2C)cc1 | 4%
CCc1nnc(CN(CC)C(=O)COc2ccc(Cl)cc2Cl)o1 | 1%
CC(C)CN(CC1CN(C(=O)c2ccc(Cl)c(Cl)c2)CCO1)C(=O)c1ccc(F)cc1 (centres undefined) | -17%
COc1cccc(Nc2cnc3ccc(N4CCOCC4)nn23)c1 | -2%[70.6 µM]
COc1cccc(C(=O)NCC2CCCN(Cc3cnc(C)s3)C2)c1OC (centres undefined) | 1%
Cc1ccccc1C1CCCN(C(=O)c2cnc(-c3cccnc3)nc2)C1 (centres undefined) | -11%
Cc1noc(C)c1Cc1ccc(C(=O)N(C)C2CCc3nnc(C)n3CC2)o1 (centres undefined) | 1%
CN(Cc1cccc(OCC(O)CN2CCOCC2)c1)Cc1ccc2nonc2c1 (centres undefined) | -2%
O=C1CCCCC(C(=O)NCCN2CCOCC2)N1 (centres undefined) | -2%
COCCN1C[C@H]2CN(C(=O)c3ccc(C(F)(F)F)cc3)CCN2C1=O | 0%[70.6 µM]
COc1ccc(OC)c(S(=O)(=O)N2CCCCCCNC(=O)CC2c2ccccc2)c1 (centres undefined) | -9%
COc1cc(C(=O)N2CCC3(CC2)CC(=O)N(C)C3)ccn1 | 1%
Cc1cccc(OC[C@H]2C[C@@H](NC(=O)c3c(-c4ccccc4)noc3C)[C@H](O)[C@@H]2O)n1 | -2%
C=CCCC(CN1CCOCC1)Oc1nccc(N(C)CC)n1 (centres undefined) | -18%
Cc1noc([C@@H]2CN(C(=O)CC(C)(C)C)C[C@H]2CO)n1 | -1%
CCc1nc2c(c(-c3ccc(O)cc3)n1)CN(Cc1ccc(C)cc1)CC2 | 8%
Cc1ccc2cc(CCC(=O)O)c(=O)[nH]c2c1 | 3%
COc1ccc(-c2cc(N3CCCC(NC(=O)C4CCCCC4)C3)n[nH]2)cc1 (centres undefined) | -3%
Cc1ccc(N2CCN(C(=O)c3cc4n(n3)CC(c3ccc(Cl)cc3)OC4)CC2)cc1 (centres undefined) | ?
COc1ccc(-c2noc(CN3CCN(c4ccccc4)CC3C)n2)c(OC)c1OC (centres undefined) | 4%
CCC(=O)N1CCCC(Cc2ncc(C)n2C(C)C)C1 (centres undefined) | 3%
CCNC(=O)N1C[C@@H](Oc2ccccc2)C[C@@H]1C(=O)NCCOC | 2%
O=C(NCCc1ccccn1)C1CC(=O)N(c2n[nH]c3ccccc23)C1 (centres undefined) | -1%
COc1cccc(CC(=O)NC2CCN(c3cc(-c4ccccc4)[nH]n3)C2)c1 (centres undefined) | -12%
COCCOc1cc(-c2noc([C@@H]3CCCN3C3CCN(C)CC3)n2)ccn1 | 0%[70.6 µM]
CCn1ccc(C(=O)N2CCC(N3C(=O)C(OCC4CC4)C34CCCCC4)CC2)n1 (centres undefined) | 5%
Cc1nc(-c2c3n(c(=O)n(CC(=O)Nc4ccccc4)c2=O)CCCC3)no1 | 9%
Cc1ccc(-c2nnc3ccc(N(C)c4cccc(C)c4)nn23)nc1 | -1%[70.6 µM]
O=C(c1ccccc1F)N1CCCC(c2nn[nH]n2)C1 (centres undefined) | 11%
CCOc1cc2c(cn1)NCCN(Cc1ccc3[nH]ccc3c1)C2 | 3%[70.6 µM]
COc1ccc(C2Cn3cnc(-c4nc(-c5ccc(OC)c(OC)c5)no4)c3CO2)cc1 (centres undefined) | 3%
COCCOCC1(CNC(=O)c2cccnc2)C[C@@H](O)[C@@H](O)C1 (some centres undefined) | -2%[70.6 µM]
Cc1ccc(C(=O)NC(C(=O)N2CCCC2)C2CCN(C(=O)CCc3ccccc3)CC2)cc1 (centres undefined) | 4%
COCCn1c(C)cnc1CCNC(=O)Cn1nc(C(F)(F)F)cc1C | 3%
Cc1ccc(NC(=O)N2CCC3(CC2)SCC(=O)N3Cc2ccccc2)cc1 | -20%
O=C1N[C@@H]2CCN(C(=O)c3ccc(-c4ccccc4)cc3)[C@@H]2C(=O)N1Cc1ccccc1 | -3%[70.6 µM]
O=C(CC1=CCCCC1)N1CC(c2noc(C3CCCN3CC3CC3)n2)C1 (centres undefined) | 7%
Cn1cc(CCC(=O)Nc2ccc3c(c2)C(=O)N2CCC[C@H]2C(=O)N3)c2ccccc21 | 3%

For convenience, some entries already given.
SMILES | hNpr1 antagonist
COCCn1c(C)cnc1CCNC(=O)Cn1nc(C(F)(F)F)cc1C | 3%
Cc1ccc(NC(=O)N2CCC3(CC2)SCC(=O)N3Cc2ccccc2)cc1 | -20%
O=C1N[C@@H]2CCN(C(=O)c3ccc(-c4ccccc4)cc3)[C@@H]2C(=O)N1Cc1ccccc1 | -3%[70.6 µM]
O=C(CC1=CCCCC1)N1CC(c2noc(C3CCCN3CC3CC3)n2)C1 (centres undefined) | 7%
Cn1cc(CCC(=O)Nc2ccc3c(c2)C(=O)N2CCC[C@H]2C(=O)N3)c2ccccc21 | 3%

Retrieved by compound from above, 3 records:
SMILES | hNpr1 antagonist
O=C(CC1=CCCCC1)N1CC(c2noc(C3CCCN3CC3CC3)n2)C1 (centres undefined) | 7%
CCn1ccc(C(=O)N2CCC(N3C(=O)C(OCC4CC4)C34CCCCC4)CC2)n1 (centres undefined) | 5%
Cc1ccc(C(=O)NC(C(=O)N2CCCC2)C2CCN(C(=O)CCc3ccccc3)CC2)cc1 (centres undefined) | 4%

(further entries)
SMILES | hNpr1 antagonist
COc1ccc(CC(=O)NCc2cc(C)cc3c(C)c(C)[nH]c23)c(OC)c1 | -21%
CCn1nccc1C(=O)N1CC(c2nc(CCOc3cccc(C)c3)no2)C1 | -9%
COc1ccc(-n2nc(C)c([C@@H]3C=C[C@@H](NC(=S)NCC(C)C)C3)c2C)cc1 | 28µM*
O=C(CCNc1c(-c2ccc(F)cc2)nc2cnccn12)Nc1ccc2c(c1)OCO2 | -2%
CCc1noc(-c2cccn3c(CNC(=O)Cc4ccccc4Cl)nnc23)n1 | 1%
O=C(NCc1nc(-c2cccc(F)c2)c(-c2ccccn2)[nH]1)N1CCCC1 | 5%
CN(CC1CCOC1)S(=O)(=O)c1ccc(Br)cc1 (centres undefined) | 1%
Cc1cc(=O)[nH]c(CCNc2nc(-c3ccncc3)nc3c2c(C)nn3C)n1 | 3%
COc1ccccc1C(=O)N1CCC2(CC1)COc1ccccc1NC2=O | -21%
CC(=O)N1CCN(C(=O)c2ncoc2C2CC2)CC(O)C1 (centres undefined) | 7%
NCCn1cc(C(=O)N2CCC(N3CCCC(C(=O)N4CCCC4)C3)CC2)nn1 (centres undefined) | -1%
Cc1ccc(CNC(=O)N2CCC(Cc3nc(-c4ccncc4)n[nH]3)CC2)cc1 | -1%
O=C(N[C@H]1[C@H](O)[C@H](O)C[C@@H]1c1cccnc1)C1CCC1 | 8%[70.6 µM]
CC1=NOC(C)(C(=O)N2CCCn3cncc3C2)C1 (centres undefined) | -1%
O=C(c1ccoc1)N1CCCn2cc(-c3ccccc3F)nc21 | 1%
CC(=O)NC1(C)CCCN(Cc2cccc(-c3ccccc3)c2)C1 (centres undefined) | -2%[70.6 µM]
COC[C@@H]1CN(S(=O)(=O)c2cn(C)cn2)C[C@H]1c1ccccn1 | 1%
CCN(CC)C(=O)CCC1CCN(C(=O)c2ccccc2F)CC1 | -4%
